High-throughput results deposited in PubChem BioAssay by ICCB-Longwood Screening Facility, Harvard Medical School.
MgrA-DNA mod – S. aureus MgrA activity modulators, primary screen, biochemical, S. aureus Newman, fluorescence polarization; MgrA-DNA binding; 0.13% of 84,000 active; inhibition, %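 (about 10 µg/mL by stock and volumes)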;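 active = above 50% in either of two replicates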;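 also: 0% = protein plus DNA without compound and 100% = DNA alone without protein; higher means less MgrA bound to DNA so lower polarization; one replicate is shown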
Sa helicase inh – inhibitors of S. aureus replicative helicase, primary screen, biochemical, fluorescence unwinding readout. purified S. aureus helicase, fluorescence unwinding assay; about half of the hits fall short of the stated cut. inhibition, %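 (tested at about 80 µM)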. 0.05% of 120,000 active. AID 485395, 2010;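 active = both duplicates at 50% or more, or one of them with a favoured structure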;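 also: 0% = mean of negative control wells and 100% = mean of positive control wells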
An asterisk follows results filed as active; nt = no result given; & = joins results of further samples. This is a subset; count on the stated rates, not on these rows.

SMILES	MgrA-DNA mod	Sa helicase inh
O=C(NCC1CCCO1)c1ccc2c(Cl)c3c(nc2c1)CCCC3 (configuration not stated)	-3.5	19
Cc1ccc(S(=O)(=O)N2CCN(S(=O)(=O)c3ccccc3)C2C(C)C)cc1 (configuration not stated)	2.2	9
O=C(c1ccncc1)N1c2ccccc2Sc2ccccc21	0.3	0
CCOc1cc(CO)ccc1OCC(=O)Nc1ccc(C)c(Cl)c1	2.0	28
Cc1cc(NC(=O)c2noc3c2CC(C(C)(C)C)CC3)nn1Cc1ccc(Cl)cc1 (configuration not stated)	nt	-38
CC(=O)Nc1cccc(C(=O)OCC(=O)c2cc3ccccc3o2)c1	nt	-20
COc1ccc(S(=O)(=O)Nn2cnnc2)cc1	nt	-22
Cc1ccc(S(=O)(=O)N(CCC(=O)N2CCOCC2)c2ccccc2)cc1	nt	-4
CN(C)c1c(/C=C2\C(=O)Nc3ccccc32)cc(/C=C2/C(=O)Nc3ccccc32)c(N(C)C)c1C#N	-1.2	nt
COC(=O)COc1ccc2c(-c3ccccc3)cc(=O)oc2c1	nt	20
CCCC(=O)Nc1nnc(SCC(=O)Nc2ccccc2C(F)(F)F)s1	nt	-20
O=C(Cn1nnc(-c2cccnc2)n1)N(c1ccccc1)c1ccccc1	-1.1	5
Cc1nc2ccc(CCC(=O)O)cc2[nH]1	-6.2	-6
O=c1cc(CO)oc(C(Nc2ccccn2)c2ccc(F)cc2)c1O (configuration not stated)	nt	13
CCOc1ccc(NC(=O)CSC2=C(C#N)C(c3cccs3)C3=C(CC(C)(C)CC3=O)N2)cc1 (configuration not stated)	4.0	9
Cc1ccc(C2=NNC(c3cccc(C)n3)S2)cc1 (configuration not stated)	4.9	-4
Cc1ccc(Cc2nc(C(C)(C)C)cs2)cc1	-4.7	nt
CC(=Nc1ccc(C)cc1C)c1sc2ccccc2c1O	1.1	9
CC12C(=O)N(c3nccs3)C(=O)C1C1C=CC2C1 (configuration not stated)	1.6	4
CC(C)(C)n1ncc2c(=O)n(CC(=O)NCc3ccc(F)cc3)cnc21	nt	-8
CC1(C)CCc2cc(-c3ccn(S(=O)(=O)c4ccc(Cl)cc4)n3)ccc2O1	-0.6	nt
CCN(CC)C(=O)c1ccc(C(=O)c2cc(OC)ccc2OC)cc1	-0.3	nt
CC1=C(C(=O)OCCc2ccccc2)C(c2ccc(Cl)c(Cl)c2)NC(=O)N1C (configuration not stated)	2.4	nt
Cc1cc(C(=O)OCC(=O)Nc2ccccc2)c(C)o1	-0.8	-16
CC12CC3(C(=O)Nc4ccc(Br)cc4)C1CCC23C (configuration not stated)	-0.8	-9

Full records as entered above. Values in the order: MgrA-DNA mod	Sa helicase inh
O=C(Cn1nnc(-c2cccnc2)n1)N(c1ccccc1)c1ccccc1 is listed with -1.1	5
CN(C)c1c(/C=C2\C(=O)Nc3ccccc32)cc(/C=C2/C(=O)Nc3ccccc32)c(N(C)C)c1C#N is listed with -1.2	nt

Next part.
SMILES	MgrA-DNA mod	Sa helicase inh
N#Cc1ccc(NC(=O)CCCC(=O)O)cc1	-3.8	nt
O=C(CSc1nc2c(c(=O)n1-c1ccccc1)SCC2)OCc1ccccc1	nt	18
O=C(OCc1nc2ccccc2s1)c1ccc(N2C(=O)CCC2=O)cc1	nt	24
CC(C)NC(=O)CSc1nnc(N)s1	nt	1
COc1cc(NC(=O)NC2Cc3ccccc3C2)cc(OC)c1	-2.6	nt
C=C(C)Cn1c(C(C)O)nc2ccccc21 (configuration not stated)	nt	1
NC(=O)C[n+]1cccc2ccccc21	4.2	9
N#CC(C#N)=C1c2cc(S(=O)(=O)NCCO)ccc2-c2ccc(S(=O)(=O)NCCO)cc21	nt	-6
O=C(NC1CCCCCC1)c1ccccc1	nt	1
N#CCCn1c(SCc2ccc(C#N)cc2)nc2ccccc21	nt	0
S=c1[nH]nc(C2COc3ccccc3O2)o1 (configuration not stated)	18	9&1
COc1ccc(Cc2c(Cl)nc(SC)nc2NN)cc1	0.3	2
COc1cccc(OC)c1C(=O)NNc1ncc(C(F)(F)F)cc1Cl	nt	-19
COc1ccc(NCc2cc(=O)oc3cc(NC(C)=O)ccc23)cc1	nt	-12
O=C(Oc1ccc2cc(OC(=O)c3ccccc3)ccc2c1)c1ccccc1	-0.9	2
COc1ccc(N2CCN(C(c3cccs3)C(C)NC(=O)c3c(F)cccc3F)CC2)cc1 (configuration not stated)	nt	4
Cc1ccc2cccc(OC(=O)c3ccc(Br)o3)c2n1	nt	-23
Clc1ccc2c(c1)c1cc(Cl)ccc1n2CN1CCCCC1	0.6	nt
O=C(NCc1ccc2c(c1)OCO2)c1ccncc1	nt	-5
COc1ccc2oc(=O)cc(-c3cc4ccccc4o3)c2c1	nt	15
CC/C(C)=N/Oc1nc(NC(=O)NS(=O)(=O)c2ccccc2Cl)nc(N(C)C)n1	-3.5	6
NC(=O)c1c(N)sc2c1CCCC2	nt	-3
O=C1C2C3C=CC(CC3)C2C(=O)N1c1ccc2c(c1)OCO2 (configuration not stated)	-1.8	nt
CCNC(=S)N1CCN(C(=O)c2ccco2)CC1	-1.1	-1
O=C(CSc1nccn1-c1cccc(Cl)c1)Nc1ccccc1	nt	21

Among those listed so far, these contain a Cl atom.
SMILES	MgrA-DNA mod	Sa helicase inh
O=C(NCC1CCCO1)c1ccc2c(Cl)c3c(nc2c1)CCCC3 (configuration not stated)	-3.5	19
CCOc1cc(CO)ccc1OCC(=O)Nc1ccc(C)c(Cl)c1	2.0	28
Cc1cc(NC(=O)c2noc3c2CC(C(C)(C)C)CC3)nn1Cc1ccc(Cl)cc1 (configuration not stated)	nt	-38
CC1(C)CCc2cc(-c3ccn(S(=O)(=O)c4ccc(Cl)cc4)n3)ccc2O1	-0.6	nt
CC1=C(C(=O)OCCc2ccccc2)C(c2ccc(Cl)c(Cl)c2)NC(=O)N1C (configuration not stated)	2.4	nt
COc1ccc(Cc2c(Cl)nc(SC)nc2NN)cc1	0.3	2
COc1cccc(OC)c1C(=O)NNc1ncc(C(F)(F)F)cc1Cl	nt	-19
Clc1ccc2c(c1)c1cc(Cl)ccc1n2CN1CCCCC1	0.6	nt
CC/C(C)=N/Oc1nc(NC(=O)NS(=O)(=O)c2ccccc2Cl)nc(N(C)C)n1	-3.5	6
O=C(CSc1nccn1-c1cccc(Cl)c1)Nc1ccccc1	nt	21

Other entries:
SMILES	MgrA-DNA mod	Sa helicase inh
O=C(/C(=N/O)n1cncn1)c1ccc(Cl)cc1Cl	-1.9	1
CCCC(C)NC(=O)N1CCOCC1 (configuration not stated)	-0.5	13
N#C/C(=C/c1ccc(C(=O)O)cc1)C(=O)Nc1ccccc1	1.8	26
CN(CC(=O)N1CCc2ccccc2C1)c1ccccc1	-1.9	-16
O=C1NCCCCC1NS(=O)(=O)c1cccc2ccccc12 (configuration not stated)	-2.0	nt
Cc1n[nH]c(C)c1Cc1ccc(O)cc1	-2.5	nt
Cc1ccc(C)n1NC(=O)c1ccncc1	-1.5	nt
Cn1ccnc1S/C=C/C(=O)c1ccc(Cl)cc1	nt	7
O=C(c1ccccc1F)N1CCNCC1	-1.4	16
CC(=O)Nc1ccc(OCc2nnc(C)o2)cc1	nt	-3
O=C(O)C1C2C=CC(O2)C1C(=O)Nc1cccc(C(F)(F)F)c1 (configuration not stated)	-3.1	8
N#Cc1c(N2CCOCC2)sc(C(=O)O)c1-c1ccc(Cl)cc1	-1.9	nt
O=C(Nc1ccc(N2CCCCC2)cc1)c1ccc(F)cc1	nt	-23
NC(=O)c1cc(S(=O)(=O)N(CCc2ccncc2)CC2CCCO2)cs1 (configuration not stated)	nt	11
Cc1cc(C(=O)NN=C2CCCCC2)c2ccccc2n1	nt	4
c1ccc(-c2nnc(COc3ncnc4c3cnn4-c3ccccc3)o2)cc1	nt	6
COC(=O)c1sc(NC(=O)c2cc3c(s2)CCCC3)nc1C	1.9	-11
Clc1ccccc1-c1nc2ccccc2s1	1.4	nt
COC(=O)c1ccc(NC(=O)C2CC(=O)N(Cc3ccccc3)C(=Nc3ccc(OC)cc3)S2)cc1 (configuration not stated)	2.1	nt
CCCCn1c(SCC(=O)Nc2ccccc2C(F)(F)F)nc2ccsc2c1=O	0.5	10
Cc1cc(C)nc(SCC(=O)c2c[nH]c3ccccc23)n1	nt	-37
COC(=O)c1ccc(N=Cc2ccc(Br)s2)cc1	-3.6	-1
COc1ccc(-c2cc(C(F)(F)F)nc(SCCC(=O)Nc3cc(C)on3)n2)cc1	0.5	-7
COC(=O)Cc1nc(NC(=O)c2nc(-c3ccccc3)oc2C)sc1C	nt	-11
Cn1c(/C(C#N)=C(\O)Cc2ccccc2)nc2ccccc21	nt	7
Going on with the list.
SMILES	MgrA-DNA mod	Sa helicase inh
Clc1ccc2nc(N3CCOCC3)nc(-c3ccccc3)c2c1	nt	0
COc1cccc(C2=NN(C(=O)c3ccccc3Cl)C(c3ccco3)C2)c1 (configuration not stated)	nt	-6
O=c1cc(Nc2cccc(C(F)(F)F)c2)nc[nH]1	-1.7	nt
CC(C)(C)c1ccc(Oc2ncccc2NC(=O)c2cccc3ccccc23)cc1	-1.1	nt
CC(C)(C)NC(=S)NN1C2CSC1CS2	nt	-16
CCOC(=O)CN1CC23C=CC(O2)C(C(=O)NCc2ccc(F)cc2)C3C1=O (configuration not stated)	nt	-18
CNc1c(NC(=O)Nc2ccc(F)cc2)c(=O)oc2ccccc12	nt	22
CCN(C(=O)C12CC3CC(CC(C3)C1)C2)C1CCS(=O)(=O)C1 (configuration not stated)	nt	5
O=C(O)C1CC1(C(=O)O)C(=O)O (configuration not stated)	-5.7	18
Cn1nc(C(=O)Nc2sc3c(c2C(N)=O)CCC3)ccc1=O	nt	6
CC(C)(C)OC(=O)NCCN1CCNCC1	4.7	9
O=C(CSc1ccc(Cl)cc1)c1cc2ccccc2o1	1.1	-14
CC1(C)NC(=O)N(c2ccccc2)N1	1.5	nt
O=C1NC(=Nc2ccccc2)S/C1=C/c1cccc(C(F)(F)F)c1	-0.3	nt
CC(=O)N1c2ccc(S(=O)(=O)Nc3ccc(CN4CCCCC4)cc3)cc2CC1C (configuration not stated)	nt	-1
CN(C(=O)c1cccs1)C1CCS(=O)(=O)C1 (configuration not stated)	-0.6	-11
CCOC(=O)Cn1c(=O)cc(C)c2ccccc21	-1.1	nt
Cc1ccnc(NS(=O)(=O)c2ccc(C3CCCCC3)cc2)c1	nt	-10
CC1SC(C)C(=O)N(CC(=O)NC2CCCCC2)C1=O (configuration not stated)	nt	7
CC(C)(C)NNC(=S)Nc1cccc(C(F)(F)F)c1	-1.7	nt
CC(C)(C)C1=NN(C(=O)c2cccc(S(=O)(=O)N3CCOCC3)c2)C(=O)C1	nt	-2
O=C(O)c1cccnc1	16&1.9	nt
Cc1nn(-c2ccccc2)c(C)c1/C=C(\C#N)S(=O)(=O)c1ccccc1	-1.7	9
COC(=O)C1=C(C)N(Cc2cccnc2)C(=O)/C1=C\c1cccc(Cl)c1	nt	-9
Cn1c2c(c(=O)n(C)c1=O)CN(Cc1ccc3c(c1)OCO3)CN2	-1.7	nt
(next part)
SMILES	MgrA-DNA mod	Sa helicase inh
COc1ccc(-c2nc(N)s[n+]2-c2ccccc2)cc1	16	-18
O=C(CCCc1nnc2c(=O)n(-c3ccc(Cl)cc3)ccn12)NCCN1CCCC1	nt	-1
CCc1ccc(NC(=O)Cn2nc(-n3cccc3)c3c(C)cc(C)nc32)cc1	nt	7
CC(=O)N1C(=O)/C(=C2\SC(=S)N(C(C)C(=O)O)C2=O)c2ccccc21 (configuration not stated)	4.8	-5
CCCCN(C)C(=O)C1CCN(c2nn3cc(-c4ccc(OC)cc4)nc3s2)CC1	0.5	5
OC1CCNCC1	nt	-11
CC(=O)n1c(=S)[nH]c2ccccc21	27	nt
O=C(CCCc1ccccc1)Nc1ccccc1C(=O)O	-1.8	19
O=C1CSc2ccccc2N1	nt	-24
O=c1c2ccccc2nc(-c2ccccc2)n1OCc1ccc(Br)cc1	4.5	nt
Cc1nnsc1C(=O)Nc1ccc(CN2CCS(=O)(=O)CC2)cc1	-1.4	nt
CCOc1ccccc1OCC(=O)O	-0.8	1
CCOC(=O)CC1Sc2ccccc2N=C1SCC(=O)Nc1ccc(Cl)cc1Cl (configuration not stated)	3.4	nt
COc1ccc(-c2c3c([nH]c(=O)c2C#N)-c2ccccc2CC3)cc1	nt	0
CCn1c(C(=O)N2CCC(C(=O)NCCc3ccc(OC)c(OC)c3)CC2)cc2sccc21	nt	-6
O=c1[nH]c(SCc2cc(=O)n3ccccc3n2)nc2c1CCC2	1.3	12
COc1ccc(NC(=O)c2ccc(COCC(F)(F)C(F)F)cc2)cc1	0.5	-4
Cc1oc(-c2ccccc2)cc1C(=O)NC(C)C12CC3CC(CC(C3)C1)C2 (configuration not stated)	-4.2	16
CCC(c1nnnn1Cc1ccccc1)N1CCN(c2cccc(Cl)c2)CC1 (configuration not stated)	-1.6	9
COc1ccc(C2Nc3ccccc3C(=O)N2c2ccccc2)cc1COc1ccc(F)cc1 (configuration not stated)	2.0	nt
CCCN(CCC)S(=O)(=O)c1ccc(C(=O)Nc2ccc(CC#N)cc2)cc1	-0.7	nt
O=C(c1ccco1)N1CCN(CC(O)COCc2cccs2)CC1 (configuration not stated)	nt	-2
COC(=O)CNC(c1ccccc1)c1cc(Br)ccc1NC(=O)c1ccccc1Cl (configuration not stated)	4.0	13
Cc1ccc(NC(=O)c2ccccc2NS(C)(=O)=O)cc1C	1.6	5
COc1cc(/C=C(\C#N)C(=O)NC2CCCCC2)cc(OC)c1O	nt	-52
COc1ccccc1Nc1ncnc2ccccc12	-0.8	-12
COc1cccc(N2C(C)=CC(=C(C#N)C#N)C=C2C)c1	nt	14
CCOC(=O)CC(C)=Nc1cnn(-c2ccccc2)c1	-2.6	1
CCOc1cc2oc(=O)cc(C)c2cc1Cl	nt	22
COc1cc(/C=N/c2oc(C)c(C)c2C#N)cc(Br)c1O	3.0	-66
